# High-throughput results from PubChem BioAssay.
# VDR inhibitor: inhibitors of human vitamin D receptor; actives 0.93% (n = 400,000); Potency, µM, for the others: max response, negative = inhibition, actives largely listed as inhibitors; VDR-SRC2-3 peptide fluorescence polarization, 2 h; active = well fitted inhibition curve with a large enough effect; inconclusive = small, poorly fitted or top-dose-only effect, or another doubt; inactive = no such curve, though single readings can be large or run the other way; also: series mostly up to about 120 µM
# Target sequence (P11473 whole entry, looked up): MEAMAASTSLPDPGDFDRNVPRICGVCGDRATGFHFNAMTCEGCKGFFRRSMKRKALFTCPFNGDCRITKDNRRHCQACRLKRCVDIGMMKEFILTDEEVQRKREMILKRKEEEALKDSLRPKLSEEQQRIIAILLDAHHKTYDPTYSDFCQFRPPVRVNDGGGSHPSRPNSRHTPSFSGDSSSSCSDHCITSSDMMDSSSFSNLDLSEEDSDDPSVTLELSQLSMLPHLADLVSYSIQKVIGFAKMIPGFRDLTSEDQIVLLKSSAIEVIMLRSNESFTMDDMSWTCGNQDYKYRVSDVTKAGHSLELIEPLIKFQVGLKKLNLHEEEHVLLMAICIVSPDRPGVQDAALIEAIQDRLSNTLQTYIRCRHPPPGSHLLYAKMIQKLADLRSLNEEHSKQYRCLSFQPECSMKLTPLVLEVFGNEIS
#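 Two reagent solutions held at 4 deg C in the dark were dispensed, compounds pinned at 23 nl, and the mixture incubated 2 h at room temperature. Read-out: fluorescence polarization of VDR–SRC2-3 peptide binding.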
# Active calls of the source: *; ? = inconclusive; & = joins results of further samples; [ ] = remark or other dose. % is scaled to controls: 0 for no effect and ±100 for the full control effect; potency is read from the fitted curve at half-maximal effect.
SMILES,VDR inhibitor
CC(C)Sc1nc2c(c(=O)[nH]c(=O)n2C)n1CCc1ccccc1,1%
O=C(Nc1ccccc1)N(CCc1ccncc1)C1CCCCC1,7%
COc1ccc(OCC(=O)NNC(=O)Cn2c(=O)cnc3ccccc32)cc1,1%
CCOc1ccc(S(=O)(=O)N2CCOCC2)cc1NC(=O)CSCc1ccc(C)cc1,-2%
CCOc1ccc(N(CC(=O)NC(C)C)C(=O)CCC(=O)Nc2ccccn2)cc1,15%
C=C(C)COc1ccc2c(C)c(CC(=O)N3C[C@H]4C[C@@H](C3)c3cccc(=O)n3C4)c(=O)oc2c1,-17%
CC#CCN1c2ccccc2[C@]23C[C@@H](C(=O)OC)N(C(C)=O)C2=NC(C(=O)OC)=C(C(=O)OC)[C@H]13,-21%
COC(=O)c1cc(NC(=O)CCc2c(C)nc3c(c(C)nn3C(C)(C)C)c2C)cc(C(=O)OC)c1,7%
C=CCN(CC=C)CC(=O)Nc1ccc(S(N)(=O)=O)cc1,-10%
O=C(CCCl)N1CCCC2(CCCCC2)C1,24%
Cc1ccc(N(CC(=O)NCc2cccs2)S(=O)(=O)c2cccs2)cc1,11%
O=C(OCc1ccc(Cl)c(Cl)c1)c1ccccn1,-8%
COCCCNC(=O)C1CCN(C(=O)Nc2ccc(Cl)cc2)CC1,12%
COc1ccc(N(CC(=O)N2CCN(c3ccc(Cl)cc3)CC2)S(=O)(=O)c2c(C)noc2C)cc1,5%
COc1ccc(/C=N/NC(=O)c2nc(-c3ccccc3)cc(-c3ccccc3)n2)cc1OC,6%
CCCCCNc1nc2ccccc2nc1NS(=O)(=O)c1cccs1,3%
CCOc1ccccc1-c1cc(-c2ccccc2)nc2c1c(=O)n(C)c(=O)n2C,-12%
CC1CCN(S(=O)(=O)c2ccc(C(=O)NCc3ccco3)cc2)CC1,4%
COc1ccc(NC2c3ccccc3C(=O)N2Cc2ccco2)cc1OC (stereo unspecified),-3%
CCOC(=O)c1c(/N=C/C2C(=O)CC(C)(C)CC2=O)sc2c1CCCC2,-2%
O=C(COc1ccc(S(=O)(=O)NC2CCCC2)cc1)N1CCCCC1,-19%
COc1ccc(-c2ccc(SCC(=O)NC3CCCCC3)nn2)cc1OC,14%
FC(F)(F)c1ccc(C2NCCc3sccc32)cc1 (stereo unspecified),-3%
Cc1ccc(/C=N/n2cnnc2)s1,1%
COCCNC(=S)N(CCCN(C)C)Cc1cc2cc3c(cc2[nH]c1=O)OCCO3,3%
O=C(Nc1ccccc1C(F)(F)F)c1cc2nc(-c3ccccc3)cc(-c3ccccc3)n2n1,-11%
CC1=C(C(=O)N2CCCC(C(=O)c3cccc4ccccc34)C2)OCCO1 (stereo unspecified),-3%
CC(=O)c1cccc(NC(=S)NC(=O)C(C)C)c1,-10%
Cc1ccc(-c2nc3c(c(=O)c4ccccc4n3C)c(=O)n2-c2ccccc2)cc1,3%
Cn1ccc(/C=N/N=C2/NC(=O)CS2)n1,-6%
Cc1ccc(CN2CCN(C3CCNCC3)C(=O)C2=O)cc1,16%
Cc1cc(/C=C2/NC(=O)NC2=O)c(C)n1C,3%
COc1ccc(Cl)cc1NC(=O)CN1C(=O)CSC1=O,-3%
CCCC(C)C(=O)Nc1cc([N+](=O)[O-])ccc1F (stereo unspecified),-4%
CCOc1ccc(/C=N/NC(=O)c2ccccc2C)cc1CN1CC2CC(C1)c1cccc(=O)n1C2 (stereo unspecified),-9%
CCN(c1ccccc1)S(=O)(=O)c1cc(C(=O)Nc2ccc(Br)cc2)ccc1F,8%&24%
O=C(c1ccco1)N1CCN(C(=O)c2ccccc2[N+](=O)[O-])CC1,-5%
C=CCNC(=O)/C(C#N)=C\c1cc(Cl)c(O)c(OCC)c1,-13%
OC(COC(c1ccccc1)c1ccccc1)CN1CCN(c2cccc(Cl)c2)CC1 (stereo unspecified),-16%
CC(C)CC(=O)Nc1ccccc1OCc1cc(=O)n2ccccc2n1,3%
CCOC(=O)N1CCN(C(=O)CSc2nnc(COc3ccccc3)o2)CC1,-9%
COc1ccc(C(CC(=O)N2CCOCC2)c2c(OC)cc(OC)c3c(-c4ccccc4)cc(=O)oc23)cc1 (stereo unspecified),-15%&-13%
O=C(NCc1ccccc1)C(c1ccccc1)N(Cc1ccc2c(c1)OCO2)C(=O)Cc1cccs1 (stereo unspecified),8%
Cc1oc(-c2cccc(Cl)c2)nc1CN1CCC(C(=O)NC(C)c2ccccc2)CC1 (stereo unspecified),-21%
Cc1ccccc1OC(=O)CCC(=O)OCCCC(F)(F)C(F)(F)F,-4%
Cc1ccc(C(C)NC(=S)NC2CCCCC2)c(C)c1 (stereo unspecified),11%
O=C(CCNC(=O)OCc1ccccc1)NC1CCCCC1,-13%
Cc1ccc2c(Cl)c(C)c(N3CCCCC3)nc2n1,-23%
O=C1NC(c2ccccc2O)Nc2ccccc21 (stereo unspecified),1%
C/C(=N\NC(=O)c1ccc2c(c1)OCCO2)c1ccccc1,-8%
Cc1nc2c(C(=O)O)cnn2c(C)c1Cc1ccccc1,8%
CC/C(=N\NC(=O)C(N)=O)c1ccccc1O,10%
Cc1c(/N=C/c2ccco2)n(Cc2ccccc2)c2ccccc12,1%
Cc1ccc(-c2cc(C(=O)N3CCOCC3)c3ccccc3n2)cc1,1%
C=C(C)CC(NCCc1ccccc1)c1ccco1 (stereo unspecified),-17%
CCC(=O)c1ccc(OCC(O)CN2CCc3ccccc3C2)cc1 (stereo unspecified),-30%
O=P(c1ccccc1)(c1ccccc1)C1CCCO1 (stereo unspecified),-18%
Cc1ccccc1NC(=O)c1sc2nc3c(cc2c1N)CCCC3,-6%
COc1cccc(-c2csc(N3CCN(C(=S)Nc4ccccc4)CC3)n2)c1,-4%
Cc1c2cnn(CC(=O)O)c(=O)c2c(C)n1Cc1ccccc1,5%

# Next section
SMILES,VDR inhibitor
COC(=O)[C@@]12CCCCN1[C@H](c1ccc(-c3ccc(OC)cc3)cc1)[C@H]1C(=O)N(C)C(=O)[C@H]12,3%
COc1ccc(N(CC(=O)Nc2ccc(Cl)cc2)S(=O)(=O)c2c(C)n[nH]c2C)cc1,15%
COc1ccc(C(=O)N2CCC[C@@]3(CCN(C)C3)C2)cc1,-4%
Cc1[nH]c(=O)[nH]c(=O)c1S(=O)(=O)N1CCCC(C(=O)NCCC2=CCCCC2)C1 (stereo unspecified),-4%
O=C(NC1CCCC1)c1ccc(CSc2nc3cccnc3n2Cc2cccc(F)c2)cc1,2%
Cc1cccc(NC(=O)CN2CCN(C(=O)c3cncn3-c3ccc(F)cc3)CC2)c1C,2%
Cc1ccc(N2C(=O)N(c3ccc(C)cc3)C3CS(=O)(=O)CC32)cc1 (stereo unspecified),8%
CCOC(=O)c1c(NC(=O)CSc2ncnc3ccccc23)sc(C(C)=O)c1C,-7%
COC(=O)c1cc2sc(C)cc2n1Cc1cccc(OC)c1,-16%
O=C(N=C1SC2CS(=O)(=O)CC2N1c1ccc(F)c(Cl)c1)C1CCCO1 (stereo unspecified),-14%
CCc1ccccc1N(C(=O)c1snc(C(N)=O)c1N)C(C(=O)NCC1CCCO1)c1ccc(N(C)C)cc1 (stereo unspecified),4%
COc1ccc(Cl)cc1NC(=O)CCN1C(=O)c2ccccc2Sc2ncccc21,9%
O=C(NCc1nnc(SCc2ccc(F)cc2)n1-c1ccccc1)C12CC3CC(CC(C3)C1)C2,-15%
Cc1ccc(CN2C(=O)CCC2C(=O)N2CCN(c3ccc(F)cc3)CC2)cc1 (stereo unspecified),-7%
COc1ccc(NC(=O)Cn2nnc(C(=O)Nc3ccc(F)c(Cl)c3)c2N)cc1OC,5%&8%
COc1cc(OC)c(NC(=O)Cn2cnc3sc(C)c(S(=O)(=O)N4CCC(C)CC4)c3c2=O)cc1Cl,-16%
CN(Cc1ccccc1)C(=O)CN(c1ccc(F)cc1)S(=O)(=O)c1ccc2c(c1)OCCO2,-4%
O=C(Nc1ccccc1Cl)N1CCN(c2ccc3nnc(-c4ccccc4)n3n2)CC1,-5%
CCCCN(C)C(=O)c1cc2cc([N+](=O)[O-])cc(OC)c2oc1=O,-8%
O=C(NCCCC(=O)N1CCCCC1)c1ccc(Cl)cc1,-2%
CCOC(=O)c1ccc(N=C2SC(C(=O)NCCc3ccccc3)CC(=O)N2C)cc1 (stereo unspecified),-6%
COc1ccc(NC(=O)CSc2oc(-c3cccs3)nc2S(=O)(=O)c2ccccc2)c(OC)c1,-6%
Nc1nc2ccc(C(=O)Nc3ccc(N4CCOCC4)cc3)cc2s1,-8%
Cc1cc(=O)[nH]c(Nc2c(C)n(C)n(-c3ccccc3)c2=O)n1,-4%
C=CCn1c(SCC(=O)NC)nnc1C12CC3CC(CC(C3)C1)C2,14%
CC(C)N1C(=O)CCC1C(=O)N1CCC(Cc2ccccc2)CC1 (stereo unspecified),-27%
COc1cccc(CNC(=O)C2CCC(CNS(=O)(=O)c3cccc4nsnc34)CC2)c1 (stereo unspecified),-9%
O=C(Cc1ccc(F)cc1)Nc1c2c(nn1-c1cccc(Cl)c1)CS(=O)C2 (stereo unspecified),3%
CCOc1ccc(CCNC(=O)COc2cccc(-n3cnnn3)c2)cc1OCC,-5%
CCCCNC(=S)NNC(=O)C1=NN(c2cc(C)ccc2C)C(=O)CC1,21%
Cc1cccc(N2CCN(S(=O)(=O)c3ccc4c(c3)n(C)c(=O)c(=O)n4C)CC2C)c1 (stereo unspecified),1%
COC(=O)c1sccc1N/N=C/c1ccc(OC)c(OC)c1OC,-9%
Cc1ccc(NC(=O)NC2=N/C(=C(/C#N)C(=O)N3CCCC3)c3ccccc32)cc1,-10%
CC(C)(C)c1ccc(CSc2nnc(-c3ccccn3)n2Cc2ccco2)cc1,-26%
CC1=C(C(=O)Nc2cc(C(=O)N3CCN(c4cccc(C)c4C)CC3)ccc2C)SCCO1,-16%
Cc1cccc(NC(=O)CNC(=O)C23CC4CC(CC(Cl)(C4)C2)C3)n1,17%
COc1ccc(N(CC(=O)Nc2cc(C)cc(C)c2)S(=O)(=O)c2ccccc2[N+](=O)[O-])c(OC)c1,0%
Cc1[nH]c2ccc(Br)cc2c(=S)c1C/C=C/Cl,?
O=S(=O)(C(=CNc1ccccc1)S(=O)(=O)c1ccccc1)c1ccccc1,-17%
Cc1ccc(N2CCCn3c2cc(C)c(C#N)c3=O)cc1Cl,37%[activator]
Cc1ccc2cc(C=C(C#N)C#N)c(N3CCCCC3)nc2c1,?
Cc1ccnc(SCC(=O)NC2CC2)n1,14%
Cc1ccc(S(=O)(=O)N2C(=O)c3cccc4cccc2c34)cc1,37%[activator]
O=C(NC(=S)Nc1ccccc1)c1cncc(C#Cc2ccccc2)c1,-9%
Cn1cccc1C(=S)N1CCOCC1,-9%
COc1cccc(NS(=O)(=O)c2ccc3c(c2)CCCN3C(=O)C2CCC2)c1,8%
Cc1nnc(NS(=O)(=O)c2ccc(Br)cc2)s1,-14%
COC(=O)[C@H](CCSC)NC(=O)Cn1cnc(C(=O)Nc2ccc(C)c(C)c2)n1,-23%
Cc1nc2ccc(NC(=O)c3ccc(S(=O)(=O)N4CCOCC4)cc3)cc2s1,-13%
Cc1cc(Nc2ccc3c(c2)OCCO3)c2ccccc2n1,-6%
CCOC(=O)CN=C1CC(C)(C)CC2=C1Sc1ncnc(N(C)C)c1N2,-13%
O=C(NC1CCCCC1)c1cc(S(=O)(=O)N2CCCCC2)ccc1N1CCOCC1,-1%
COc1ccccc1C(=O)NNC(=O)CCC(=O)NCc1ccccc1,-13%
OCc1cc(-c2ccccn2)no1,-5%
Cc1ccc(-n2nc3c(=O)n(C(C)C(=O)NCc4ccc5c(c4)OCO5)nc(C)c3c2C)cc1 (stereo unspecified),1%
CS(=O)(=O)N1N=C(c2cccs2)CC1c1ccc(F)cc1 (stereo unspecified),-20%
COc1ccc(C(=O)c2cn(Cc3ccccc3F)c3cc4c(cc3c2=O)OCO4)cc1,-8%

# Only part of the results is shown, so the mix of outcomes need not match the whole.
